Arbovirus inh – antivirals against arbovirus infection; arbovirus infection cell-based antiviral screen; inhibition, % at 10 µM; actives 0.37% (n = 200,000);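 active = inhibition from about 30%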;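 note: bluetongue infection of BSR cells; cell survival read as ATP light after 72 h; 0% = infected wells without compound and 100% = uninfected wells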
Mtb H37Rv – M. tuberculosis H37Rv growth inhibitors, H37Rv strain (AID 1626). M. tuberculosis H37Rv growth inhibition; higher % means a stronger effect. actives 0.95% (n = 220,000). inhibition, % at 10 µM; hits with a dose series show IC50 in µM;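 active = confirmed in a dose series; inconclusive = inhibition above 80% but not taken into the dose series; inactive = below 80% or under 30% at every dose of the series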;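 note: bacteria incubated seven days before Alamar blue readout; 0% = bacteria only wells and 100% = bacteria with antibiotic wells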
Mtb bLac sens – beta-lactam sensitization of Mtb H37Rv; M. tuberculosis H37Rv growth with meropenem, percent inhibition; hits of this screen are not shown here; inhibition, % at 25 µM; actives 0.27% (n = 330,000);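 active = about 74% or more and at least 40 points above the plate without the antibiotic, then above 30% in a dose series; inconclusive = first-round hits that could not be retested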;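 note: growth measured after seven days incubation then overnight dye step; 0% = bacteria only wells and 100% = bacteria with antibiotic; twin plates without the antibiotic show which effects depend on it; some results filed as inactive read as strong as hits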
RecA intein inh – blocks M. tuberculosis RecA intein splicing; P9WHJ3; cell-free RecA intein splicing, fluorescence; inhibition, %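 (about 9 µM by stock and volumes)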; actives 0.75% (n = 290,000); AID 2221; in the data active = inhibition above about 30%; inconclusive = no clear call, values can overlap the other calls;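 note: 0% = vehicle wells and 100% = reference inhibitor control wells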
Target sequence (P9WHJ3 whole entry, looked up): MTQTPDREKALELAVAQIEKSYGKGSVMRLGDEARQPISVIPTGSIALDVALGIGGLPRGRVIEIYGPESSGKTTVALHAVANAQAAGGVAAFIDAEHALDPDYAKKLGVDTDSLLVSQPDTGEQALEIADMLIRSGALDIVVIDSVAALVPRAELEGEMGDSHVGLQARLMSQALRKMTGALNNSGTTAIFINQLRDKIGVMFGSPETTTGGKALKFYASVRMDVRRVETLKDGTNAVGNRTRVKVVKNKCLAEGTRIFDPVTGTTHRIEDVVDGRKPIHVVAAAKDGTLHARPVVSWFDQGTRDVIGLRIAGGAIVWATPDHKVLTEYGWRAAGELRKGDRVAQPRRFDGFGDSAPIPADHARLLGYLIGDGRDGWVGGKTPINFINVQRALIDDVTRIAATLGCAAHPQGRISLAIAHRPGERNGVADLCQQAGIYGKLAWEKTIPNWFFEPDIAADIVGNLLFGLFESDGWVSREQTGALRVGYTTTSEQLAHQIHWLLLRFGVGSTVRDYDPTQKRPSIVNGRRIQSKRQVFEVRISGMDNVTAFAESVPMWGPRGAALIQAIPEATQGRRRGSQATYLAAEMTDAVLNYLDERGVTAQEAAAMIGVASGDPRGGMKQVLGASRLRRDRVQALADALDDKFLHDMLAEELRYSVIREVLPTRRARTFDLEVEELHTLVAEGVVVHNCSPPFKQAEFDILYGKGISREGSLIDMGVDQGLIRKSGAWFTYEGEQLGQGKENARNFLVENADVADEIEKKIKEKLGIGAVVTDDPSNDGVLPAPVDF
YopH inh – blocks Yersinia enterocolitica YopH tyrosine phosphatase; actives 0.16% (n = 140,000); AID 898; inhibition, %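 (about 10 µM by stock and volumes)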; fluorescence Ex485/Em525;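 active = inhibition of 50% or more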;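 note: controls were vehicle for no effect and minimum signal wells for full effect; inactives centre near -20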
Arbovirus inh repeat – also measured in Arbovirus inh; calls as there; inhibition, %; measured here: 10K subset replicate screen; many hits read low in the repeat;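 first of two repeat runs on a subset; 0% = infected and 100% = uninfected wells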
Starred values were filed as active, the others as inactive; ? = inconclusive; . = not tested or not shown.

SMILES	Arbovirus inh	Mtb H37Rv	Mtb bLac sens	RecA intein inh	YopH inh	others
COc1ccc(N2CC(C(=O)NCc3cccnc3)CC2=O)cc1 (stereo not drawn)	6	-1%	-16	0.5	-42
COc1ccc(-c2csc(C3=C(O)CN(CCCN4CCCC4=O)C3=N)n2)cc1OC	-4	-5%	-18	-2.3	.
Cc1ccc(-c2nc(C)sc2CC(=O)O)cc1	-2	-10%	-6	-1.2	-4
CNS(=O)(=O)c1cccc(C(=O)OCc2cc(=O)oc3c(C)c(O)ccc23)c1	.	.	-2	-9.7	.
Cc1cc(C)n(-c2nc(SCC(=O)N3CCCC3)c3c4c(sc3n2)CCCC4)n1	-29	-8%	95	2.8	-33
O=C(O)c1ccc(N/N=C/c2cccc(F)c2)cc1	0	8%	17	-11	-26
CN(C)S(=O)(=O)N1CCC(Oc2ccc(C(=O)NCc3cnn(C)c3)cc2)CC1	-6	-5%	2	-3.5	.
C#CCn1c(S(=O)(=O)Cc2ccc(C)cc2)nc(-c2ccccc2)c1-c1ccccc1	1	2%	8	8.8	-30
CC(OC(=O)c1ccc(Cl)nc1)C(=O)NC1(C#N)CCCCC1 (stereo not drawn)	.	.	-7	-1.6	.
Cn1c(CCN2CCCC2)nc2cc(NS(=O)(=O)c3ccc(Cl)cc3)ccc21	.	.	4	2.8	.
O=C(COC(=O)CCS(=O)(=O)c1ccc(Cl)cc1)NC1CCCCC1	2	1%	-11	0.3	-9
Cc1ccc(-c2nnc(SCC(=O)NC3CC3)n2N)cc1	.	-3%	-3	0.6	.
COc1ccc(N2CCN(C(=O)C(=O)c3c[nH]c4ccccc34)CC2)cc1	.	.	-2	-2.7	.
COCCN(CCOC)c1nc(-c2ccc([N+](=O)[O-])cc2)nc2ccccc12	.	.	4	0.9	.
O=C(CN1CCN(c2ccc(F)cc2)CC1)Nc1ccc(S(=O)(=O)N2CCOCC2)cc1	.	.	5	2.1	.
Cc1ccc(CCNC(=O)Cn2ccc3cc(S(=O)(=O)N4CCCC4)ccc32)cc1	.	.	7	-4.2	.
COc1cc2c(cc1OC)CN(C(=O)CNS(=O)(=O)c1ccc(C)c(C)c1)CC2	.	.	-1	-1.1	.
O=C(CN1CCCCCC1)NCCN1C(=O)S/C(=C\c2ccccc2Cl)C1=O	13	0%	-5	9.7	.
CC(=O)OCc1cc(=O)n(C)c(=O)n1C	5	4%	-2	1.5	2
COc1ccc2c(c1)C(=O)CC(c1ccccc1F)O2 (stereo not drawn)	-4	.	11	-2.2	-29	Arbovirus inh repeat=-5
COc1c(/C=C2/C(=O)NC(=O)N(C)C2=O)c(CCN(C)C(=O)c2ccccc2)cc2c1OCO2	.	.	5	-0.9	.
Cc1ccc2[nH]c3c(c2c1)CCc1cn[nH]c1-3	-31	.	11	-3.1	-15
Cc1cc(=O)n2c(C(=O)Nc3ccc(C)c(C)c3)c(C(=O)Nc3ccccc3)sc2n1	-3	0%	1	.	.
Cc1cc2oc(=O)ccc2cc1[N+](=O)[O-]	.	.	0	-0.6	.
Cc1ccc(C(=O)OCC(=O)NC(=O)c2ccccc2)o1	.	.	-10	-0.3	.
(cont.)
SMILES	Arbovirus inh	Mtb H37Rv	Mtb bLac sens	RecA intein inh	YopH inh	others
CCOc1nc2ccccc2nc1NS(=O)(=O)c1ccc(Cl)cc1	.	.	4	0.9	.
CC1CCN(C(=O)CSc2nc(N)cc(N)n2)CC1	-1	2%	-1	-0.3	-43
COc1ccc(-c2noc(C)c2-c2ccc3ccccc3n2)c(O)c1	8	1%	80	-3.1	-43
O=C1c2ccccc2-c2onc3c(N4CCN(CCO)CC4)cc(N4CCN(C(=O)c5ccco5)CC4)c1c23	.	.	19	2.3	.
Cc1cc(C)cc(NC(=O)Nc2c(Br)cnn2C)c1	.	.	12	0.1	.
CC(C)C(OC(=O)CN1C(=O)c2ccccc2C1=O)C(=O)NC1CCCCC1 (stereo not drawn)	.	.	0	-6.6	.
CCN1CCSc2ccc(C(=O)NCc3ccccc3Br)cc21	.	.	-6	-1.6	.
CNC(=O)CN(c1cc(C)ccc1OC)S(=O)(=O)c1ccc(C)cc1	1	-5%	0	-0.1	-79
CCCCNC(=O)Cn1c(=O)n(C)c2ccccc21	-1	1%	-10	2.8	-3	Arbovirus inh repeat=10
CCOC(=O)C1=C(C)Nc2sc(C(=O)c3ccc(Br)cc3)c(N)c2C1c1ccc(C(=O)OC)cc1 (stereo not drawn)	4	39%	91	-33	-5
CNC(=S)NCCc1ccc(OC)cc1	5	0%	-12	-1.2	.
Cc1ccc2sc(N3CCN(C(=O)c4ccc([N+](=O)[O-])o4)CC3)nc2c1C	.	.	99	1.4	.
CNS(=O)(=O)c1ccc(C(C)(C)C)cc1	-3	-3%	-2	-0.4	.
O=C(O)c1cccc(N/N=C/c2cccnc2)c1	-3	5%	.	-0.6	.
O=C(CC1SC(N2CCCC2)=NC1=O)Nc1ccc(C(=O)Nc2ccccc2)cc1 (stereo not drawn)	.	.	-3	3.8	.
Fc1cccc(CN2CCN3CCCC3C2C2CCCCC2)c1 (stereo not drawn)	9	1%	4	0.0	-32
CCCC/C(O)=N\S(=O)(=O)c1ccc(N=NN(C)C)cc1	4	-1%	-3	-0.7	40
COCCOC(=O)c1c(NC(=O)CSc2cccc[n+]2[O-])sc(C(N)=O)c1C	2	-3%	-7	0.5	.
Cc1ccc(CSc2cc(C)[nH]c(=O)n2)cc1	.	.	-5	1.9	.
COCCCn1c(=O)c2sccc2n2c(CCCC(=O)N(C)Cc3ccco3)nnc12	.	.	3	0.3	.
O=C(NCc1ccccc1)NC(O)C(Cl)(Cl)Cl (stereo not drawn)	4	-3%	0	-1.5	.
COC(=O)C1CCN(Cc2ccc(OCCCN3CCN(c4ccc([N+](=O)[O-])cc4)CC3)cc2)CC1	0	-2%	-10	3.5	.
O=C(/C=C/c1cccs1)N1CCC2(CC1)Oc1ccc(F)cc1C(=O)C21CC(c2ccc(Cl)cc2)=NO1 (stereo not drawn)	.	-3%	-4	1.8	.
O=C(C1CCCCN1S(=O)(=O)c1ccccc1)N1CCCCC1 (stereo not drawn)	3	7%	-1	.	-3
COc1ccc(N(CC(=O)Nc2cccc(C)c2)S(=O)(=O)c2c(C)noc2C)cc1	.	.	1	0.9	.

Looked up by structure from the list above:
SMILES	Arbovirus inh	Mtb H37Rv	Mtb bLac sens	RecA intein inh	YopH inh	others
COc1ccc(N(CC(=O)Nc2cccc(C)c2)S(=O)(=O)c2c(C)noc2C)cc1	.	.	1	0.9	.
CC1CCN(C(=O)CSc2nc(N)cc(N)n2)CC1	-1	2%	-1	-0.3	-43
CCOC(=O)C1=C(C)Nc2sc(C(=O)c3ccc(Br)cc3)c(N)c2C1c1ccc(C(=O)OC)cc1 (stereo not drawn)	4	39%	91	-33	-5
CCCC/C(O)=N\S(=O)(=O)c1ccc(N=NN(C)C)cc1	4	-1%	-3	-0.7	40
Cc1ccc2sc(N3CCN(C(=O)c4ccc([N+](=O)[O-])o4)CC3)nc2c1C	.	.	99	1.4	.
Fc1cccc(CN2CCN3CCCC3C2C2CCCCC2)c1 (stereo not drawn)	9	1%	4	0.0	-32

(list continues)
SMILES	Arbovirus inh	Mtb H37Rv	Mtb bLac sens	RecA intein inh	YopH inh	others
CCOC(=O)N1CCN(Cc2nc(Cc3cccc(C(F)(F)F)c3)no2)CC1	-1	11%	5	0.9	.
COc1ccc(S(=O)(=O)c2c(O)c3ccc(C(=O)Nc4ccc(F)cc4F)cc3[nH]c2=O)cc1	.	.	1	-1.0	.
Cc1ccc(C2=C(c3ccc([N+](=O)[O-])cc3)C(=O)OC2)cc1C	17	-2%	3	2.1	.
CC(C)C(C)NC(=O)COc1ccc(OCc2ccccc2)cc1 (stereo not drawn)	-2	-4%	-4	-0.4	.
O=C(CSc1ccc(-c2ccncc2)nn1)N1CCCC1	0	-7%	-6	-1.1	.
CCCNC(=O)c1cnc(Sc2ncc(C(F)(F)F)cc2Cl)n1C	8	2%	-6	5.4	-10
O=C(COc1ccc(Cl)cc1)NCc1cn2cc(Cl)ccc2n1	0	0%	-12	-3.0	.
CCSc1nnc(Cn2c(=O)sc3ccccc32)n1C	11	2%	-6	-0.9	-42	Arbovirus inh repeat=1
CC(C)Sc1nc2ccc(N3C(=O)C4CCCCC4C3=O)cc2s1 (stereo not drawn)	12	11%	10	0.3	-30
CCS(=O)(=O)c1nc2ccccc2n1Cc1ccccn1	1	-10%	-3	1.8	.
CC(=O)c1ccc(NC(=S)NC(C)c2ccc(Cl)cc2Cl)cc1 (stereo not drawn)	-39	12%	21	20	.
O=c1cc(-c2ccc([N+](=O)[O-])cc2)nc2cc(-c3ccc(Cl)cc3)[nH]n12	-9	3%	-2	.	2
O=C(Nc1ccc(S(=O)(=O)N2CCCCC2)cc1)C1CC(=O)N(c2ccccc2)C1 (stereo not drawn)	.	.	2	-1.9	.
COc1c(C)cc(C(=O)C2CCCN(S(=O)(=O)c3c(C)noc3C)C2)cc1C (stereo not drawn)	-8	6%	-3	5.6	.
CN(C)C=Nc1ccc(Cl)c(Cl)c1	.	4%	33	6.1	.
CCN(CC)c1ccc(C2NCC(c3ccc([N+](=O)[O-])cc3)O2)cc1 (stereo not drawn)	-4	0%	-3	-1.0	-25
CCc1cccc(C)c1NC(=O)c1cccc(N(C)C)c1	-10	-10%	-2	-2.2	-38
CCCCNC(=S)NNC(=O)c1cc(C2CC2)nc2ccccc12	.	.	4	0.8	.
O=C(c1ccc(Cl)cc1)c1c[nH]cc1-c1ccccc1	-5	-2%	-1	-0.1	-5
COc1ccc(Cc2noc(CN(C)C3CC(C)(C)NC(C)(C)C3)n2)cc1OC	6	1%	-5	-2.9	.
Cc1cccc(C)c1N(CC(=O)NCc1ccco1)C(=O)CNS(=O)(=O)c1ccc(F)cc1	.	.	-1	0.2	.
N#C/C(=C\c1cccs1)C(=O)NCc1ccco1	-14	3%	-1	0.7	-57
CCOC(=O)N1CCC(NC(=O)C(Cc2ccccc2)NC(=O)C2CCCCC2)CC1 (stereo not drawn)	1	-6%	-2	-5.6	-53	Arbovirus inh repeat=-1
CC(=O)c1c(C)[nH]c(C(=O)NCc2ccc(C)cc2)c1C	-6	-3%	-11	-5.9	-32
O=C(COC(=O)CNS(=O)(=O)c1c(Cl)cccc1Cl)Nc1cccnc1Cl	4	-2%	-8	-5.4	-28
The list continues:
SMILES	Arbovirus inh	Mtb H37Rv	Mtb bLac sens	RecA intein inh	YopH inh	others
CCN1C(=NCCCCO)N[C@@H](c2cccc(C(F)(F)F)c2)C(C(=O)OC)=C1C	.	.	-5	-0.4	.
S=C(Nc1ccccc1)N1CCC(C2CCN(C(=S)Nc3ccccc3)CC2)CC1	.	13%	1	.	.
O=C(CN1C(=O)NC2(CCCC2)C1=O)Nc1ccccc1-c1ccccc1	.	-5%	-3	-0.1	.
CCc1n[nH]c2c1/C(=N/O)CCC2	5	-8%	-10	0.2	-33
O=C(COc1ccccc1Cl)Nc1ccc(N2CCCC2)cc1	.	.	?	1.2	.
O=C(Nc1nnc(CCc2ccccc2)s1)c1cccc(F)c1	.	.	1	-3.0	.
CC1CCCC(NC(=O)c2ccc(F)c(S(=O)(=O)N3CCOCC3)c2)C1C (stereo not drawn)	.	.	-5	0.9	.
Cc1ccc(S(=O)(=O)C(CCC(=O)c2ccc(Cl)cc2)C(N)=O)cc1 (stereo not drawn)	11	-3%	9	0.8	-3
CCCCNCC(=O)Nc1ccc(NC(=O)CNCCCC)cc1	-5	-4%	-4	-3.7	-6
CCCCn1cnc2c(cnn2-c2ccc(F)cc2)c1=O	-1	-1%	7	-0.9	-33
CCOc1ccc(-n2c(SCc3ccc(C#N)cc3)nnc2-c2cccnc2)cc1	-4	0%	-2	0.9	-33
Cc1nnc(SCC(=O)Nc2ncc(Cl)cc2Cl)n1Cc1ccccc1	5	0%	1	-0.7	-19
COc1ccc(-c2noc(-c3ccccc3C(=O)N3CCOCC3)n2)cc1	2	1%	-15	0.9	12
C=CCC1(CC=C)CCCN1C(=O)Cn1nnnc1CN(C)C(C)C	.	.	-3	-0.8	.
CC(C)C(=O)NC(c1ccc(N(C)C)cc1)c1c(O)ccc2ccccc12 (stereo not drawn)	.	61%	-4	-1.5	.
Cc1cccc(NC(=O)CSc2nnc(CCNC(=O)OC(C)(C)C)o2)c1C	.	-5%	-3	-1.3	.
Cc1sc2nc(CN3CCOCC3)nc(Oc3ccc(NC(=O)c4ccco4)cc3)c2c1C	-9	8%	-3	6.7	-48
O=C(O)CSc1c2c(nc3cc(C(=O)N4CCCC4)ccc13)CCCC2	-2	6%	-4	5.5	.
Cc1cc(-c2nc3cccnc3s2)ccc1NS(=O)(=O)c1cccs1	14	-11%	-8	-2.8	.
Cc1cc(NCCCn2ccnc2)n2nc(-c3ccc(F)cc3)cc2n1	-9	-5%	7	-1.5	-57
CCNc1nc(-c2ccc(Cl)cc2)cs1	5	7%	0	7.5	-5	Arbovirus inh repeat=4
CCCn1nnc(NC(=O)c2ccc(-c3ccccc3)cc2)n1	-27	0%	2	2.8	-25

Source: PubChem BioAssay

A portion of the library; the hit share may differ from the screen's.
